T cruzi repl = blocks replication of Trypanosoma cruzi | T. cruzi beta-gal in NIH3T3, luminescence, 90 h | AID 1885 | 1.4% of 300,000 active | inhibition, % (test concentration not listed);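 active = mean inhibition across valid replicates above about 55%, limit read from the data; inconclusive = mean below that limit but half or more replicates reach it; inactive = mean below it, under half of replicates reach it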;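 also: signal also drops with host cell toxicity which is not excluded here; 0% = plate median of DMSO wells and 100% = zero luminescence signal; higher percent means less beta-gal luminescence so fewer parasites; stock transfer was 50 nL into about 50 µL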
rRNA inh HTS = inhibits bacterial ribosomal RNA function over humanized ribosomes | E. coli WT GFP vs humanized-ribosome RFP mutants, fluorescence, 24 h; active compounds read low; DMSO median 0, no signal -100 | GFP signal change (wild-type ribosome), % (concentration not given with the values) | AID 720706 | 1.6% of 350,000 active;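 active = significant combined selectivity score with lowered wild-type GFP, culture density cut under 30%, mutant RFP and density less affected; inactive = any of these conditions unmet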; also: one replicate is shown; some compounds called inactive have numbers as strong as hits
ALR inh = human ALR oxidase inhibition via reduced H2O2 | P55789 | purified ALR, DTT oxidation, H2O2 HRP-luminol luminescence | inhibition, % (test concentration not listed) | 3.8% of 290,000 active | AID 485317;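 active = mean and each replicate at 75% or more; inconclusive = only one of the two met; inactive = neither met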;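 also: stock transfer was 7.5 nL into about 7.5 µL; 0% = neutral wells and 100% = wells with inactivated enzyme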
Target sequence (P55789 whole entry, looked up): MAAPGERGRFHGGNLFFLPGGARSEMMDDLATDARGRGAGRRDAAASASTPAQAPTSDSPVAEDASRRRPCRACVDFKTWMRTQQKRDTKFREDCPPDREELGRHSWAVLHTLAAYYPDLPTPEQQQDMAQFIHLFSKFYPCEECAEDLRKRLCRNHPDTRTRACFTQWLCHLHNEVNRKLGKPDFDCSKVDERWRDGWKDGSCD
FGF22 binding = FGF22 (human) thermal shift binding. Q9HCT0. 1.5% of 340,000 active. AID 651658. calls only at 9.99 µM. recombinant FGF22 thermal shift, SYPRO orange fluorescence; percent of sucrose octasulfate shift, DMSO zero;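 active = melting point raised past a set limit in the mean and every replicate; inconclusive = no clear call; three in four hits are not shown here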
Target sequence (Q9HCT0 whole entry, looked up): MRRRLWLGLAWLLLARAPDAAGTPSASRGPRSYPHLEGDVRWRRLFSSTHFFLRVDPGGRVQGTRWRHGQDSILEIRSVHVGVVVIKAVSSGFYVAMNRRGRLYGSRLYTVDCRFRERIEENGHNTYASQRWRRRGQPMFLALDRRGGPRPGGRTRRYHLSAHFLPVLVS
Calb FLC = C. albicans growth modulation with fluconazole; C. albicans CaCi-2 (fluconazole-resistant clinical isolate) + fluconazole, Alamar Blue growth, 48 h; growth inhibition, % (no concentration beside the values); 0.57% of 300,000 active; AID 1979;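 active = most replicates above 75%; inconclusive = exactly half above 75%; inactive = most below 75%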;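 also: all wells also contain fluconazole at 8 µg/ml as a sub-toxic cotreatment; 0% = median of DMSO wells and 100% = median of geldanamycin control wells; wells of about 8 µL received 7.5 nL stock; the first replicate is given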
RanGTP-Imp inh = disruptors of Ran-importin-beta complex formation – biochemical, FRET, CFP-Ran, YFP-importin-beta, homogeneous, primary screen. AID 2216. 1.1% of 300,000 active. inhibition, % (no concentration beside the values). cell-free CFP-Ran/YFP-importin-beta FRET ratio;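 active = most replicates above 15%; inconclusive = exactly half above 15%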;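 also: 0% = DMSO wells and 100% = Ran loaded with GDP instead of GTP; wells of about 40 µL received 100 nL stock; the first replicate is given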
AF4-AF9 inh = inhibitors of human MLL-AF4/AF9 interaction. AlphaScreen, biotin-AF4 peptide binding to FLAG-AF9. inhibition, % at 10 µM. 0.47% of 350,000 active;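 active = every replicate reaching a set inhibition limit, whatever the replicate mean, cut at about 25% in these data; inconclusive = mean inhibition reaches that limit but some replicates miss it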;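 also: 0% = plate neutral control median and 100% = total signal loss; the record names both 10 and 1 µM as test concentration; the first replicate is given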
Target sequence (P42568 whole entry, looked up): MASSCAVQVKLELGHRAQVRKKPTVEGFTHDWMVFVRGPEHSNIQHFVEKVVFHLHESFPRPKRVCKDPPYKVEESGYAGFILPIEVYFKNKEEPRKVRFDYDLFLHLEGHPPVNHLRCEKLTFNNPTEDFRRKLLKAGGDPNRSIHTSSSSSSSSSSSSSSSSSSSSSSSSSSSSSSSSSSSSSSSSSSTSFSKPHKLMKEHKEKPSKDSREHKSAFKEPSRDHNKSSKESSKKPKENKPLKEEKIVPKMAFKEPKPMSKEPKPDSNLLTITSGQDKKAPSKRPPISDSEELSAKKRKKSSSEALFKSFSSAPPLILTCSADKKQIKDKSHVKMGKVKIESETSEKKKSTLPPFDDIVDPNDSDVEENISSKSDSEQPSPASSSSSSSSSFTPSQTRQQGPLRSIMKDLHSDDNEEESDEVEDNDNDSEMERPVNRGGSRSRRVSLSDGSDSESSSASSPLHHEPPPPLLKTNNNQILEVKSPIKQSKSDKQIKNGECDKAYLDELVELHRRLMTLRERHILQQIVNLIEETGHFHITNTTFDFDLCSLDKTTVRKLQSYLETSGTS
Beta apoptosis = beta cell apoptosis inhibition. INS-1E cytokine-induced death, ATP luminescence, 48 h; percent of positive-control rescue, neutral wells zero. protection from apoptosis, % (concentration not given with the values). 0.8% of 300,000 active. AID 435005;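 active = all replicates at 75% or more, or half of them and the mean; inconclusive = half reach 75% but not the mean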;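 also: 0% = cytokine-treated negative control wells and 100% = positive control rescue; higher means more ATP so stronger rescue from cytokine killing; wells of about 40 µL received 100 nL stock; the first replicate is given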
rRNA inh HTS OD600 = further read-out of rRNA inh HTS, marked with its call; OD600 change, %; measured here: OD600 growth;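 optical density of the mix in the first replicate; 0 = DMSO median and -100 = no signal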
rRNA inh HTS RFP = second read-out of rRNA inh HTS, no call of its own (marks repeat the call); RFP signal change, %; measured here: RFP humanized mutant strains;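 first replicate; 0 = DMSO median and -100 = no signal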
* = called active by the depositor; i = inactive; ? = inconclusive; nt = not tested or not shown.

mol	T cruzi repl	rRNA inh HTS	rRNA inh HTS OD600	rRNA inh HTS RFP	ALR inh	FGF22 binding	Calb FLC	RanGTP-Imp inh	AF4-AF9 inh	Beta apoptosis
CN(C)/C(=N\S(=O)(=O)c1ccc(Br)cc1)c1ccccc1	-12	-7	-13	-0.9	nt	i	2	0.6	-3.0	-2
COc1ccc(/C=C/c2cc(-c3ccc(C)cc3)o[n+]2C)cc1	59*	nt	nt	nt	6	nt	90*	-0.2	nt	116*
CCS(=O)(=O)N1CCC(C(=O)NC2CCCCCCC2)CC1	-11	nt	nt	nt	-3	nt	-27	2.0	nt	-6
CC1(C)Cc2ccccc2-c2nc3n(c(=O)c21)CCS3	18	19	8	0.4	-18	nt	11	3.9	0.2	nt
CCCOC(=O)/C(=C\C=C\c1ccco1)NC(=O)c1ccccc1	14	18	11	8.6	20	i	-7	-3.4	7.2	-5
Nc1c(Cl)c(Cl)nc(C(=O)N/N=C/c2cccnc2)c1Cl	9	14	7	2.8	-7	i	-2	1.3	1.0	3
Cn1c(=O)oc2cc(S(=O)(=O)N3CCCC(C(=O)NCc4cccs4)C3)ccc21 (stereo not drawn)	-3	10	15	-0.5	-3	i	-1	-1.2	0.9	-2
COc1ccccc1OCC(O)CN1C(=O)NC(C)(C)C1=O (stereo not drawn)	8	7	8	0.1	0	i	-7	-0.5	-3.1	0
Cc1ccc(Nc2nc(N)nc(CSc3nnc(-c4ccncc4)o3)n2)cc1	-13	nt	nt	nt	0	nt	nt	-1.9	nt	-9
COc1cc(C(=O)N/N=C(\c2ccccc2)c2ccccn2)cc(OC)c1OC	55*	-12	-4	-4.0	-18	i	-4	0.7	0.0	86*
Cn1c(COc2ccc(Cl)cc2)nnc1SCC(=O)Nc1ccc2c(c1)CCC2	13	nt	nt	nt	-28	nt	2	-2.6	nt	-1
COc1ccc(CNc2ccc([N+](=O)[O-])cc2C)cc1	6	-24*	-14*	-8.6*	-15	i	5	0.5	-0.8	-3
CN(C)C(=O)NC(O)C(Cl)Cl (stereo not drawn)	-1	nt	nt	nt	0	nt	9	0.4	nt	-4
CCc1noc(C)c1C(=O)NNC(=O)COc1ccc(C)cc1	-16	5	11	0.5	-5	i	nt	-1.7	-0.8	-7
CC1CN(C)C(C)c2c1oc1ccc([N+](=O)[O-])cc21 (stereo not drawn)	?	-9	-20	-5.6	-23	i	-11	2.1	-0.7	4
O=C1COc2ccc(N3C(=O)C=CC3=O)cc2N1	-6	nt	nt	nt	9	nt	-22	0.5	nt	1
CC(C)S(=O)(=O)c1cnc(N2CCOCC2)nc1N	8	2	9	-1.2	-3	i	-7	1.0	-2.9	0
Cc1oc2ccc(OCc3c(F)cccc3Cl)cc2c1C(=O)O	-7	-9	1	-1.7	1	nt	37	?	-0.5	-7
CCOc1ccc(CNC(=S)N/N=C\c2ccc([N+](=O)[O-])cc2)cc1	30	nt	nt	nt	99*	nt	0	-0.5	nt	9
CCCCCCSc1ccc([C@@H]2[C@H]3C(=O)N(CC)C(=O)[C@H]3[C@]3(C(=O)OC)CCCN23)cc1	nt	4	7	4.2	-6	i	nt	nt	3.2	10
Cc1cc(C(=O)CSc2nnc(-c3cccnc3)n2-c2ccccc2F)c(C)n1C	10	nt	nt	nt	9	nt	16	-0.9	nt	-5
CCC(CC)c1nnc(NC(=O)CC(C)c2ccccc2)s1 (stereo not drawn)	13	19	19	0.8	1	nt	-5	0.8	-3.1	-1
Oc1ccccc1-c1nc(N2CCCC2)c2ccccc2n1	-2	nt	nt	nt	2	nt	-9	1.0	nt	1
N=C1SC(CC(=O)Nc2ccccc2[N+](=O)[O-])C(=O)N1c1ccccc1 (stereo not drawn)	7	4	6	1.4	-5	i	-1	1.1	nt	2
CCCS(=O)(=O)N1CCC(C(=O)NCCN2CCCC2)CC1	6	nt	nt	nt	1	nt	6	-1.2	nt	-4
CCCN(CC(=O)Nc1ccccc1C)C(=O)Cc1coc2cc(C)ccc12	-7	-10	-8	-0.2	-6	i	-10	2.2	-0.5	-6
Cc1ccc(Cl)cc1N1CCN(C(=O)C(=O)N2CCCCC2)CC1	-2	-1	-7	-3.0	2	i	-1	1.8	-2.2	-1
COc1ccc(CNC(=O)C(OC(=O)c2ccco2)c2ccccc2)cc1 (stereo not drawn)	-13	-5	-2	-0.5	-1	i	6	1.5	0.4	1
CC(=O)Nc1ccc(S(=O)(=O)N2CCN(c3cc(C(F)(F)F)ccn3)CC2)cc1	-10	-51	-74	-13	-3	i	2	2.4	0.1	-6
C/C=C/c1ccc(OCC(=O)N2CCc3cc(OC)c(OC)cc3C2)c(OC)c1	3	-7	-18	-1.5	-3	i	-4	-0.6	6.2	0
O=C(CSc1ncnc2sccc12)NCc1ccc2c(c1)OCO2	nt	7	11	16	0	i	nt	nt	0.6	-8
CC1(C)CC(=O)c2c(oc3ccc(NS(=O)(=O)c4ccc(C(=O)O)cc4)cc23)C1	-3	0	-7	-0.1	6	i	-24	?	-0.2	-3
O=C(O)c1cccc(N2C(=O)C3CC=CCC3C2=O)c1 (stereo not drawn)	-28	nt	nt	nt	4	nt	2	-6.9	nt	nt
COc1ccc(OCCCC(=O)NCCc2ccc(OC)c(OC)c2)cc1	-9	7	5	1.8	-2	i	-1	0.2	-0.4	-2
CCOc1c2ccc(C(=O)NCc3ccccc3OC)cc2nn1CC	-3	nt	nt	nt	4	nt	-9	6.4	nt	-8
O=C(NNC(=S)NCc1ccccc1)c1cccnc1	2	0	5	-2.9	59	i	4	0.9	-1.5	3
CCOC(=O)c1ccc(S(=O)(=O)NNC(=O)Cc2csc(C)n2)cc1	nt	2	5	0.3	9	nt	nt	nt	-1.5	-3
CN(c1ccccc1)S(=O)(=O)c1cccc(C(=O)OCC(=O)NCc2ccccc2)c1	nt	-15	-27	-2.5	-6	i	nt	nt	-0.7	-2
O=C(CCn1c(=S)[nH]c2ccccc2c1=O)NCCCN1CCOCC1	-16	nt	nt	nt	8	nt	13	-0.4	nt	-2
COCCC(=O)N1CCC(Oc2ccc(C(=O)NCCn3cccn3)cc2)CC1	-16	12	15	1.4	-21	i	0	?	-8.8	3
CC1CCN(c2ccc(-c3cccs3)nn2)CC1	-5	4	6	-0.8	-2	i	1	4.4	-0.8	28
O=[N+]([O-])c1cccc(S(=O)(=O)NCCc2cn3ccccc3n2)c1	-5	2	-3	-5.0	-24	i	-10	-0.3	-1.7	-9
COc1ccc(OC)c(CN2CCCC(C(=O)N3CCCCC3)C2)c1 (stereo not drawn)	-15	nt	nt	nt	0	nt	-13	-1.0	nt	-1
COC(=O)CN1C(=O)C(O)(CC(=O)c2ccc(C)o2)c2ccccc21 (stereo not drawn)	-22	nt	nt	nt	-1	nt	0	-1.0	nt	-7
O=C(/C=C/c1cn(-c2ccccc2)nc1-c1cccnc1)N1CCCC1	34	-30	-26	0.9	nt	nt	49	-6.6	2.2	nt
O=c1c(Cl)c(NC2CC2)cnn1-c1ccccc1	-6	3	-2	16	-2	i	-7	1.0	-0.6	2
COc1cc(C2Nc3ccccc3C(=O)N2NS(C)(=O)=O)c([N+](=O)[O-])cc1OC (stereo not drawn)	-1	-8	-4	0.4	-11	i	2	0.2	-4.0	-2
Cc1ccc(Sc2ncnc(N)c2[N+](=O)[O-])cc1	6	nt	nt	nt	50	nt	14	2.1	nt	-25
COc1cccc(C(=O)Nc2c3c(nn2-c2cccc(C)c2C)CS(=O)(=O)C3)c1OC	5	nt	nt	nt	6	nt	41	-3.0	nt	6
CC(=O)Nc1ccc(NCC(O)COc2ccccc2)cc1 (stereo not drawn)	-10	nt	nt	nt	70	nt	-6	1.7	nt	-4
O=C(c1ccc(Cl)c([N+](=O)[O-])c1)N1CCN(c2ccccn2)CC1	-31	-14	-14	-2.8	nt	i	0	5.6	7.4	2
CN(C)c1ccc(-n2cccc2)cc1	-7	6	13	-2.1	11	i	14	-0.9	-1.2	0
COc1cc(C2C(C#N)=C(N)N(c3ccc(F)cc3)C3=C2S(=O)(=O)CC3)ccc1O (stereo not drawn)	10	-1	-6	-1.1	88*	i	47	2.4	-1.1	0
CC(C(=O)Nc1ccc(C(=O)O)cc1)N1C(=O)c2ccccc2C1=O (stereo not drawn)	-19	nt	nt	nt	-11	nt	-4	0.5	nt	1
CCOC(=O)N1CCC(N2C(=O)c3ccc(C(=O)Nc4cccc(OC)c4)cc3C2=O)CC1	-20	17	15	-0.4	-1	i	-9	2.0	-0.7	5
CCSC1=C(C#N)C(c2ccccc2Cl)C(C(=O)c2cccs2)C(O)(C(F)(F)F)N1 (stereo not drawn)	8	nt	nt	nt	-3	nt	18	-2.2	nt	11
O=C(O)c1ccc(-c2nc3ccccc3s2)o1	7	5	9	5.1	1	i	5	-5.9	4.2	-2
COc1ccc(N2CCCn3c2nc2c3c(=O)n(CCCc3ccccc3)c(=O)n2C)cc1	21	nt	nt	nt	5	nt	-3	0.0	nt	7
C#CCN1C(=O)C2C(C(=O)NC)C3C=CC2(O3)C1C(=O)NCc1ccc(OC)cc1 (stereo not drawn)	-8	nt	nt	nt	2	nt	-11	-2.6	nt	-5
CNC(=O)/C(C#N)=C/c1c(N(Cc2ccccc2)Cc2ccccc2)nc2ccccn2c1=O	11	nt	nt	nt	nt	nt	?	0.9	nt	11

Continued.
mol	T cruzi repl	rRNA inh HTS	rRNA inh HTS OD600	rRNA inh HTS RFP	ALR inh	FGF22 binding	Calb FLC	RanGTP-Imp inh	AF4-AF9 inh	Beta apoptosis
Cc1ccc(Oc2cc(C#N)c(C#N)cc2-n2nnc3ccccc32)cc1C	-10	nt	nt	nt	-3	nt	0	1.0	nt	3
Cc1ccc(/C=C/C(=O)CCC(=O)O)cc1	7	17	6	-4.5	?	i	44	0.7	-1.9	-1
Cc1cc(-c2ccc(C)c(S(=O)(=O)NCCCN3CCN(c4ccccc4)CC3)c2)on1	25	-21	-14	-1.4	?	i	1	1.0	2.7	20
O=C(c1ccc(Cl)c(S(=O)(=O)N2CCc3ccccc32)c1)N1CCN(c2ccccc2O)CC1	nt	-13	-24	-5.0	10	i	nt	nt	2.2	-22
C[C@H](NC(=O)c1ccc(Cl)cc1)C(=O)NNC(=O)c1cccs1	nt	nt	nt	nt	0	i	nt	nt	-0.4	-2
CCN(CC)S(=O)(=O)c1ccc2nc(NC(=O)c3cccs3)sc2c1	-17	nt	nt	nt	-5	nt	19	-1.9	nt	4
CCc1ccc(Nc2nnc(SCc3cc(=O)n4ccsc4n3)s2)cc1	0	nt	nt	nt	38	nt	-2	-0.3	nt	-5
O=C(NCc1cccs1)C1CCCN(c2ncccn2)C1 (stereo not drawn)	-9	nt	nt	nt	-2	nt	0	-1.6	nt	-6
CC(NS(=O)(=O)c1ccc(CCC(=O)NCc2cccnc2)cc1)c1ccccc1 (stereo not drawn)	-12	nt	nt	nt	0	nt	8	-2.4	nt	-2
CC1=[N+](CC(=O)c2ccccc2)CCn2cccc21	27	27	27	11	-10	i	?	20*	5.9	13
Cc1ccccc1NC(=O)Cc1nc(COC(=O)c2nc(Cl)ccc2Cl)cs1	nt	3	0	-2.1	0	i	nt	nt	0.0	-3

High-throughput results deposited in PubChem by Broad Institute.

Not all compounds are listed; rates above refer to the full screens.
